# HNF4A DNA FP – change in binding of human HNF4 alpha to DNA | HNF4a-FITC DNA binding, fluorescence polarization, 1 h | activity change, % at 10 µM | hit rate 0.3% among 360,000; in the data active = activity change above about 30%, passing the limit was not always enough;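 note: controls were the assay level and a saturating level of protein; the project sought stronger binding though the title names inhibitors; some compounds called inactive have numbers as strong as hits; positive values seem to mean higher polarization but the record does not say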
# MLL AF4-AF9 inh – MLL-AF4/AF9 protein interaction inhibition; AlphaScreen, biotin-AF4 peptide binding to FLAG-AF9; inhibition, % at 10 µM; hit rate 0.47% among 350,000;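 active = every replicate reaching a set inhibition limit, whatever the replicate mean, cut at about 25% in these data; inconclusive = mean inhibition reaches that limit but some replicates miss it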;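 note: 0% = plate neutral control median and 100% = total signal loss; the record names both 10 and 1 µM as test concentration; the first replicate is given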
# Target sequence (P42568 whole entry, looked up): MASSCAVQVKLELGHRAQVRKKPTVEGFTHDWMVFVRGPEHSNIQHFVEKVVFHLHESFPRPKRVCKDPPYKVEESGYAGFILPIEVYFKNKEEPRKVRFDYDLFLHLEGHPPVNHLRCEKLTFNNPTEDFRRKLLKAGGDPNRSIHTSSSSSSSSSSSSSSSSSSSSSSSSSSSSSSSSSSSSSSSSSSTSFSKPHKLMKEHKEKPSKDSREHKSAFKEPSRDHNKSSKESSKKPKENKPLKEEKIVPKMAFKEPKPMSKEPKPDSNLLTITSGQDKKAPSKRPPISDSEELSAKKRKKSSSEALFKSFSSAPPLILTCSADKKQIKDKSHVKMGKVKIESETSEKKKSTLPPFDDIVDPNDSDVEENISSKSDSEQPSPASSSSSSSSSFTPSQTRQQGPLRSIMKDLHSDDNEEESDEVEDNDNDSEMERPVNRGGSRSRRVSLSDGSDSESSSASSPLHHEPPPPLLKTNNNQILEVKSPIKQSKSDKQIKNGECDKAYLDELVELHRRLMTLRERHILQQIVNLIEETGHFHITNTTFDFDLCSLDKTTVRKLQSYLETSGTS
# rRNA inh HTS – inhibits bacterial ribosomal RNA function over humanized ribosomes. E. coli WT GFP vs humanized-ribosome RFP mutants, fluorescence, 24 h; hits give low values; DMSO median 0, no signal -100. hit rate 1.6% among 350,000. GFP signal change (wild-type ribosome), % (no concentration beside the values);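 active = significant combined selectivity score with lowered wild-type GFP, culture density cut under 30%, mutant RFP and density less affected; inactive = any of these conditions unmet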; note: one replicate is shown; some compounds called inactive have numbers as strong as hits
# Vif TR-FRET – inhibitors of Vif binding to APOBEC3G peptide, primary screen, biochemical, TR-FRET, GST-Vif 1-94, biotin-A3G peptide, dose response retest (AID 1117319); hit rate 0.57% among 260,000; inhibition, %, or IC50 in µM where a hit was titrated; TR-FRET GST-Vif / biotin-A3G peptide binding; higher % means a stronger effect; test concentration not given here; strong numbers were not always called active;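 active = above the screen mean plus three standard deviations and confirmed in dose response; inconclusive = results disagree or hit not tested in dose response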;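 note: Vif residues 1-94 fused to GST binding biotinylated APOBEC3G peptide 110-148; 0% = full assay without inhibitor and 100% = GST in place of GST-Vif; retest series ran down from 100 µM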
# ALR inh – blocks human ALR sulfhydryl oxidase activity; inhibition, % (concentration not given with the values); purified ALR, DTT oxidation, H2O2 HRP-luminol luminescence; hit rate 3.8% among 290,000; P55789;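 active = mean and each replicate at 75% or more; inconclusive = only one of the two met; inactive = neither met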;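 note: stock transfer was 7.5 nL into about 7.5 µL; 0% = neutral wells and 100% = wells with inactivated enzyme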
# Target sequence (P55789 whole entry, looked up): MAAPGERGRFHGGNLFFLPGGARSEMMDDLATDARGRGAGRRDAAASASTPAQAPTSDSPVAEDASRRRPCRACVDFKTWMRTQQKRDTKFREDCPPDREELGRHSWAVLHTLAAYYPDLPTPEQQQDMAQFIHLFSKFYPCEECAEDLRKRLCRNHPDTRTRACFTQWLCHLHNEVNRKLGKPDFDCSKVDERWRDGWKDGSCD
# FGF22 binding – FGF22 (human) thermal shift binding; Q9HCT0; recombinant FGF22 thermal shift, SYPRO orange fluorescence; percent of sucrose octasulfate shift, DMSO zero; calls only at 9.99 µM; hit rate 1.5% among 340,000;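 active = melting point raised past a set limit in the mean and every replicate; inconclusive = no clear call; three in four hits are not shown here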
# Target sequence (Q9HCT0 whole entry, looked up): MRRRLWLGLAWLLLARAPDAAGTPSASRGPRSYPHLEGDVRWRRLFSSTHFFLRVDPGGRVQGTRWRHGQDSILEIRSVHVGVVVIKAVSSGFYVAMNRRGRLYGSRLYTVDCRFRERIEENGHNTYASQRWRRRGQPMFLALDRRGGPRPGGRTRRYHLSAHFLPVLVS
# E coli growth – E. coli growth inhibition; Escherichia coli growth, OD600, 23 h; hits give low values; hit rate 0.21% among 330,000; OD600 absorbance (no concentration beside the values);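 active = OD600 absorbance below the run mean of sample wells minus 3.6 SD, in any replicate, cut at about 0.56 in these data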;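 note: stock transfer was 300 nL into about 60 µL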
# rRNA inh HTS OD600 – recorded beside rRNA inh HTS, whose call it bears; OD600 change, %; measured here: OD600 growth;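 optical density of the mix in the first replicate; 0 = DMSO median and -100 = no signal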
# rRNA inh HTS RFP – also measured in rRNA inh HTS; calls as there; RFP signal change, %; measured here: RFP humanized mutant strains;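 first replicate; 0 = DMSO median and -100 = no signal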
# Numbers without * were called inactive; i = inactive; u = inconclusive; x = no result given; & = joins results of further samples. An excerpt; count on the stated rates, not on these rows.
SMILES,HNF4A DNA FP,MLL AF4-AF9 inh,rRNA inh HTS,rRNA inh HTS OD600,rRNA inh HTS RFP,Vif TR-FRET,ALR inh,FGF22 binding,E coli growth
CCCN(C(=O)COc1ccc(Cl)cc1Cl)c1c(N)n(Cc2ccccc2)c(=O)[nH]c1=O,-2.3,0.3,13,11,4.1,u,-4,i,0.68
N#Cc1c(-c2ccccc2)cc(-c2ccccc2)nc1SCc1nnc(-c2ccccc2)o1,-3.4,x,x,x,x,-6%,-8,x,0.77
CC1(c2ccccc2)NC(=O)N(Cc2ccc([N+](=O)[O-])cc2)C1=O (configuration not stated),1.7,x,x,x,x,15%,-3,x,0.63
CC(=O)c1ccc(N2CCN(C(=O)c3ccco3)CC2)c(F)c1,0.2,x,x,x,x,5%,11,x,0.77
Cc1ccc2c(c1)=C(c1sc(N(C)c3ccc(O)cc3)nc1O)C(=O)N=2,-1.6,-0.2,-1,12,-2.1,-2%,-1,i,0.67
COCCNC(=O)C(=O)NCC1OCCN1S(=O)(=O)c1cccs1 (configuration not stated),1.0,-18,11,3,-4.1,7%,-1,i,0.66
C[C@@H]1CN([C@H](C)CO)C(=O)c2cc(NC(=O)CCCN(C)C)ccc2O[C@@H]1CN(C)S(=O)(=O)c1ccc(Cl)cc1,x,-4.0,3,4,-2.9,x,x,i,x
COc1ccc(-c2nnc(N)s2)cc1,-0.2,x,x,x,x,29%,-6,x,0.71
O=C(c1ccc(Br)o1)N1CCN(c2ccc3nnc(-c4ccccc4)n3n2)CC1,-0.6,1.8,-13,-2,15,3%,1,i,0.73
CC1(C)Cc2c(c(N3CCOCC3)nc3sc(C(N)=O)c(N)c23)CO1,3.8,-6.4,-3,0,4.0,19%,22,i,0.7
COc1ccc(NC(=O)C2=CC(c3ccc(OC)cc3)=NS(=O)(=O)N2C)cc1,4.0,5.6,-5,-7,-2.4,x,-4,i,0.71
Cc1ccc(F)c(S(=O)(=O)NC(=O)C2(C)CCN2C(=O)Cc2cccc3ccccc23)c1 (configuration not stated),-0.9,-4.3,4,15,-0.5,x,x,i,x
COc1ccc(/C=C/C(=O)NC2CCS(=O)(=O)C2)cc1 (configuration not stated),1.1,1.2,-3,-4,-3.4,3%,-1,i,0.66
NC(CCc1ccccc1)c1csc(Nc2cnccn2)n1 (configuration not stated),-3.0,4.1,2,-7,5.2,x,x,i,x
CC(=O)c1c(C(C)=O)c(C)n(-c2ccc3ncccc3c2)c1C,-2.6,2.1,16,0,-0.1,4%,x,i,0.7
Cc1cccc([C@@H]2C[C@H]3CN(Cc4cccc(Cl)c4)C(=O)[C@]34CCCN24)n1,2.6,x,x,x,x,31%,-4,x,0.69
COc1ccccc1-n1cnnc1SCC(=O)c1ccc[nH]1,0.0,x,x,x,x,8%,0,x,0.73
O=c1ccc2c(-c3ccccc3)c3ccc(O)cc3oc-2c1,-99,-4.1,50,-32,24,13%,-1,i,0.66
OCCN1CCN(c2nnc(-c3ccccc3)c3ccccc23)CC1,-1.1,-3.0,4,-5,-5.6,-11%,-19,i,0.67
CCCc1cc(C(=O)Nc2ccc(C(=O)c3ccc(C)cc3)cc2)n(C)n1,1.3,-1.1,-5,-32,5.6,x,0,i,0.67
N#Cc1cnc(NN)nc1,3.1,-15,7,10,-0.4,-3%,9,i,0.73
CO[C@@H]1CN(C)C(=O)c2cc(NS(=O)(=O)c3ccc(C)cc3)ccc2OC[C@H](C)N(Cc2nccs2)C[C@H]1C,0.2,2.2&3.5,-4&-7,-8&-4,5.7&1.0,x,x,i,x
Cc1cc(NC(=O)CN2CCCCCCC2)no1,0.2,x,x,x,x,16%,9,x,0.61
COc1ccc(OCC(=O)NCCc2c[nH]c3ccccc23)cc1,0.6,0.3,x,x,x,x,25,i,0.69
CCc1ccccc1NC(=O)CSc1nnc(-c2ccncc2)o1,2.8,x,14,10,-0.6,1%,29,i,0.68
O=C(NC12CC3CC(CC(C3)C1)C2)N1CCN(c2ccccc2)CC1,1.7,5.8,-19,-22,-5.4,-8%,x,i,0.72
CCCNC(=O)N1CC2(CCN(S(=O)(=O)c3cccc(OC)c3)CC2)c2c(n(C)c3cc(OC)ccc23)[C@@H]1CO,x,1.2,-3,-12,3.8,x,x,i,x
Cc1cccc(Nc2cc(C)c3c(O)cccc3n2)c1C,2.0,28*,-45,-76,-21,x,x,i,x
Cc1ccc(S(=O)(=O)N2CCOC23CCN(C(=O)c2ccccc2Br)CC3)cc1,-1.3,4.2,-4,-10,9.8,x,-4,i,0.73
O=C(N/N=C/c1cc(Br)cs1)c1ccc2c(c1)OCCO2,2.1,4.5,10,-4,1.7,-7%,1,i,x
CCOCCCNC(=O)c1cn(CC(C)C)c(=O)c2cc(OC)c(OC)cc12,-2.3,-3.9,-1,4,-0.4,-5%,x,i,0.73
Cc1nn(-c2ccccc2)c(Cl)c1/C=N/NC(=O)c1ccccc1NS(=O)(=O)c1cccs1,-1.4,x,x,x,x,13%,44,x,x
CC(C)N(C(=O)[C@H]1C[C@H](CC(=O)NCc2cccc(C(F)(F)F)c2)C(=O)N2CCc3c([nH]c4ccc(Cl)cc34)[C@]12C)C(C)C,1.5,3.5,24,10,-2.3,x,x,i,0.74
COC(=O)c1sc(NC(=O)c2c(-c3ccccc3)noc2C)nc1C,-7.0,0.0,-7,-7,1.8,x,3,i,0.7
COc1ccccc1CN(C)C[C@@H]1OCc2cnnn2CCCC(=O)N([C@@H](C)CO)C[C@@H]1C,x,-2.2,0,8,0.2,x,x,i,x
O=C(Nc1c(C(=O)O)oc2ccc(Br)cc12)c1ccccc1,-1.7,x,x,x,x,4%,95*,x,0.72
Cn1c(C(=O)OC(C(=O)NC(C)(C)C)c2cccnc2)cc2sccc21 (configuration not stated),0.7,-0.3,17,13,-3.4,-12%,-11,i,0.63
CCCCCC(=O)Nc1ccc(N2CCOCC2)c(S(=O)(=O)Nc2ccc(OC)cc2)c1,0.3,-0.4,1,-4,3.8,-1%,-11,i,0.62
C[C@@H]1COc2cccc(N(C)CCO)c2S(=O)(=O)N1,-0.5,-3.4,-2,5,-2.3,x,x,i,x
CC(CCN1CCN(c2ccccc2)CC1)c1ccccc1 (configuration not stated),3.7,1.9,4,3,-0.4,x,51,i,0.67

# Ordered by molecular weight (falling): part of the list above.
SMILES,HNF4A DNA FP,MLL AF4-AF9 inh,rRNA inh HTS,rRNA inh HTS OD600,rRNA inh HTS RFP,Vif TR-FRET,ALR inh,FGF22 binding,E coli growth
CC(C)N(C(=O)[C@H]1C[C@H](CC(=O)NCc2cccc(C(F)(F)F)c2)C(=O)N2CCc3c([nH]c4ccc(Cl)cc34)[C@]12C)C(C)C,1.5,3.5,24,10,-2.3,x,x,i,0.74
CCCCCC(=O)Nc1ccc(N2CCOCC2)c(S(=O)(=O)Nc2ccc(OC)cc2)c1,0.3,-0.4,1,-4,3.8,-1%,-11,i,0.62
COc1ccccc1CN(C)C[C@@H]1OCc2cnnn2CCCC(=O)N([C@@H](C)CO)C[C@@H]1C,x,-2.2,0,8,0.2,x,x,i,x
CCOCCCNC(=O)c1cn(CC(C)C)c(=O)c2cc(OC)c(OC)cc12,-2.3,-3.9,-1,4,-0.4,-5%,x,i,0.73
Cn1c(C(=O)OC(C(=O)NC(C)(C)C)c2cccnc2)cc2sccc21 (configuration not stated),0.7,-0.3,17,13,-3.4,-12%,-11,i,0.63
C[C@@H]1COc2cccc(N(C)CCO)c2S(=O)(=O)N1,-0.5,-3.4,-2,5,-2.3,x,x,i,x

# New compounds follow:
SMILES,HNF4A DNA FP,MLL AF4-AF9 inh,rRNA inh HTS,rRNA inh HTS OD600,rRNA inh HTS RFP,Vif TR-FRET,ALR inh,FGF22 binding,E coli growth
CCOC(=O)CN1C(=O)CCSc2ccc(Cl)cc21,0.3,-0.6,2,-1,-4.4,-13%,-8,i,0.65
COc1ccccc1NC(=O)Cn1c(=O)oc2ccccc21,-0.4,x,x,x,x,-7%,-2,x,0.73
Cc1ccc(S(=O)(=O)Nc2ccc(Br)cc2C(NCC(=O)O)c2ccccc2)cc1 (configuration not stated),1.7,x,x,x,x,6%,5,x,0.67
CC(=O)CSc1nc(-c2cccs2)c(C#N)c(=O)[nH]1,0.8,-3.1,8,-5,5.7,-79%,x,i,0.68
COc1ccc(NC(=O)CC2Nc3ccccc3NC2=O)c([N+](=O)[O-])c1 (configuration not stated),1.5,1.0,3,11,-2.6,u,-15,i,0.74
COCC(=O)Nc1sc2c(c1C(=O)OC)CCCC2,4.2,x,x,x,x,16%,1,x,0.66
CNc1cncc(-c2cccc(C(=O)N(C)C)c2)n1,0.5,5.3,9,10,1.3,x,x,i,x
CCOC(=O)c1ccc(COC(=O)CNC(=O)CNC(=O)c2ccc(OC)cc2)o1,-0.3,x,x,x,x,u,-4,x,0.69
COC(=O)C(C)(C)ONC(=O)Nc1ccccc1Cl,0.0,2.8,8,8,-0.2,2%,-3,i,0.68
C[C@@H]1CN([C@@H](C)CO)S(=O)(=O)c2ccc(C#Cc3ccncc3)cc2O[C@@H]1CN(C)C,x,-3.8,7,-2,-4.2,x,x,i,x
CC(C)(C)c1ccc(C(=O)NC(=S)NCc2cccnc2)cc1,-1.1,x,x,x,x,27%,5,x,0.61
C[C@@H]1CN([C@@H](C)CO)C(=O)c2cc(C#C[C@@H](C)O)cnc2O[C@H]1CN(C)CC1CCCC1,x,-3.1,13,13,-1.5,x,x,i,x
NC(=O)COC(=O)CSc1ccc2ccccc2c1,-3.8,-6.3,-15,-10,-3.5,-8%,99*,i,0.68
C[C@H]1CN([C@@H](C)CO)C(=O)Cc2cc(NC(=O)C3CC3)ccc2O[C@@H]1CN(C)S(=O)(=O)c1cn(C)cn1,x,1.0,3,7,0.6,x,x,i,x
CO[C@@H]1CC[C@H]2CCN(C)C(=O)[C@@H](C)CN(C)C(=O)c3cccc(C#N)c3OC[C@H]1O2,x,0.1,2,5,-4.7,x,x,i,x
C[C@H]1CN([C@@H](C)CO)C(=O)c2cccc(NS(C)(=O)=O)c2O[C@H]1CN(C)CC1CCCCC1,x,-4.1,4,4,-0.8,x,x,i,x
CC(Oc1ccc2c3c(c(=O)oc2c1)CCC3)C(=O)NC1CCN(Cc2ccccc2)CC1 (configuration not stated),6.5,5.7,2,-4,2.9,x,0,i,0.67
CC(=O)N1[C@H](CO)[C@H](c2ccccc2)C12CN(C(=O)c1ccc3c(c1)OCO3)C2,x,3.1,2,2,-2.3,x,x,i,x
O=C(Nc1nnc(C2=COCCO2)o1)c1ccc([N+](=O)[O-])s1,-0.4,-8.9,1,-5,-1.7,-2%,-35,i,0.64
N#CC(C#N)=CNc1cccnc1,4.8,3.3,4,-1,-6.3,-3%,2,x,0.71
COc1ccc(N=Cc2sc3ccccc3c2Cl)cc1,3.3,x,x,x,x,1%,-31,x,0.64
O=C(Cc1ccc(Cl)cc1)NN1C(=O)c2ccccc2C1=O,5.3,-17,9,-3,-0.3,-5%,-13,i,0.69
CCc1ccc(C2C(C#N)=C(N)Oc3cc(N)ccc32)cc1 (configuration not stated),1.6,-4.3,3,8,-3.5,x,47,i,0.68
CC(C)NC(=O)N(C)C[C@@H]1Oc2ncc(-c3cccc(C#N)c3)cc2C(=O)N([C@H](C)CO)C[C@@H]1C,-2.0,-2.5&-6.3&-4.9,2,2,-2.1,1%,x,i,x
COc1ccc(-c2nc3c(Cl)cc(C(F)(F)F)cn3c2Cc2ccsc2)cc1OC,6.6,-4.2,-2,-16,1.1,x,x,i,x
Cc1ccc2nsnc2c1NC(=O)COc1ccccc1F,-1.7,0.2,7,4,2.5,5%,-26,i,0.7
COc1ccc(NC(=O)NC(c2ccccc2)c2ccccc2)c(OC)c1,3.6,-3.2,7,6,1.4,x,-4,i,0.73
